Anthrax LT inh: qHTS Assay for Anthrax Lethal Toxin Internalization; Cells, anthrax lethal toxin internalization, FRET ratio (460/530); Potency, µM (series often up to 40 µM), for inactives: at the top dose activity change, negative = inhibition, most hits filed as inhibitors; hit rate 0.67% among 70,000; active = well fitted falling ratio curve with the 530 nm signal flat; inconclusive = other ratio curves, or a change in one channel alone; inactive = flat curves in the ratio and both channels; the % refers to the ratio; note: % is set by controls: 0 for no effect and ±100 for the full control effect; nearly all actives have a fitted effect of over 50% in size; tested in ME-180 cells; beta-lactamase reporter
Prx2 Sm inh: Schistosoma Mansoni Peroxiredoxins (Prx2) | Schistosoma mansoni peroxiredoxin 2 (Prx2) | S. mansoni Prx2 activity coupled to TGR/GSH (TGR is thioredoxin glutathione reductase), NADPH fluorescence loss, qHTS; some inactives read as strong as hits | Potency, µM | hit rate 0.07% among 65,000 | AID 448, 2006; active means full or partial inhibition curve with a strong effect at the top dose; inconclusive means weaker partial or single-point curve; inactive means no accepted curve; note: series up to 57 µM; many of its hits are not listed in these tables
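Activity is read as the drop in NADPH fluorescence (365/450 nm), recorded every 30 sec for 8 min after H2O2 addition. Prx2 is coupled to TGR-driven NADPH oxidation through glutathione, in phosphate buffer pH 7.4.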
An asterisk follows results filed as active; ? = inconclusive; nt = not tested or not shown; [ ] = remark or other dose. Potency is the fitted concentration of half-maximal effect. These rows are one share of the data; rates above refer to the full screens.

Each structure is followed by: Anthrax LT inh, Prx2 Sm inh
- CC(=O)NC(CCS(C)(=O)=O)C(=O)Nc1cc(C)ccc1C (configuration not stated)
→ 2%, >57
- COCCn1c(SCC(=O)c2ccc(Cl)cc2)nnc1C(C)C
→ -6%, >57
- N#Cc1ccccc1NC(=O)c1ccccc1OCC(=O)Nc1ccc2c(c1)oc1ccccc12
→ -19%, >57
- CCOc1ccc(CNc2ccc(N3CCCC3)cc2)cc1
→ ?, >57
- CCC(C)(C)n1nnnc1C(c1cc2ccc(OC)cc2[nH]c1=O)N1CCN(C2CCCCC2)CC1 (configuration not stated)
→ 3%, >57
- CCc1ccc(N(CC(=O)NC2CCCC2)S(=O)(=O)c2c(C)noc2C)cc1
→ -26%, >57
- Oc1ccccc1N=Cc1ccc[nH]1
→ -18%, >57
- CCOC(=O)Nc1cc(C(=O)OC)cc(C(=O)OC)c1
→ 1%, >57
- C=CCn1c(SCC(=O)NC(=O)NCC(C)C)nnc1C1CCCCC1
→ 2%, >57
- CCOC(=O)c1ccc(NC(=O)CCNS(=O)(=O)c2ccc3c(c2)oc(=O)n3C)cc1
→ 17%, >57
- CCCCNC(=O)c1ccc(NC(=O)C2CCCO2)cc1 (configuration not stated)
→ 4%, >57
- O=C(/C=C\Nc1ccccn1)c1ccc(Cl)cc1
→ ?, >57
- COc1ccccc1-c1c(C)oc2c(CN3CCN(CCO)CC3)c(O)ccc2c1=O
→ 2%, >57
- Cc1ccc(C)c(NC(=O)C2CCC(C)(C(=O)O)C2(C)C)c1 (configuration not stated)
→ -4%, nt
- O=C(CSc1nnc(Cn2c(=O)sc3ccccc32)n1CCc1ccccc1)N1CCOCC1
→ ?, >57
- CCN(CC)S(=O)(=O)c1ccc(C(=O)OCCN2C(=O)CCC2=O)cc1
→ 3%, >57
- CCC(C)Oc1cccc(C(=O)Nc2ccccc2N2CCOCC2)c1 (configuration not stated)
→ ?, >57
- CC1(C)[C@@H]2CC[C@@](C)(C2)[C@H]1OC(=O)c1ccccc1C(=O)O
→ -9%[8 µM], >57
- O=C1CC(c2nc3ccccc3[nH]2)CN1c1cccc(C(F)(F)F)c1 (configuration not stated)
→ -15%, >57
- CCCn1c(=O)c2ccccc2n2c(SCCOc3ccc(OC)cc3)nnc12
→ -15%, >57

(further entries)
Each structure is followed by: Anthrax LT inh, Prx2 Sm inh
- CC(=O)[C@H](CC(C)C)NC(=O)[C@@H](CC(C)C)NC(=O)[C@H](CC(C)C)NC(=O)OCc1ccccc1
→ ?, >57
- CC(C)(C)c1cc(C(F)(F)F)nc(SCCCNC(=O)c2ccco2)n1
→ -22%, >57
- O=C(NCCCN1CCN(Cc2ccccc2)CC1)C1CCN(c2nnc(-n3cccc3)s2)CC1
→ -11%, >57
- COC(=O)c1ccc(CN(c2ccccc2OC)S(=O)(=O)c2cccs2)o1
→ 0%, ?
- CCNc1nc(NC(C)(C)C)nc(N(CC)n2cnnc2)n1
→ 2%, >57
- COc1cccc2c(=O)n(CC(=O)NC3CCCCC3)ccc12
→ 10%, >57
- Oc1c(C(Nc2ccccn2)c2ccccn2)ccc2cccnc12 (configuration not stated)
→ 20%, >57
- N[C@H](Cc1ccc(O)c(I)c1)C(=O)O
→ 2%, >57
- Cc1cc(N2CCC(N(C)C3CCCC3)CC2)nc2cc(O)ccc12
→ 3.2µM*, >57
- c1cncc(-c2nn3c(Cn4cnc5ccccc54)nnc3s2)c1
→ -8%, >57
- O=C(Nc1ccc2c(c1)nc1n2CCSC1)c1ccco1
→ 3%, >57
- CCC1CCCCN1C(=O)CSc1nnc(-c2cccs2)o1 (configuration not stated)
→ -4%, >57
- COc1nc(Nc2ccc(O)cc2)nc(OC(C(F)(F)F)C(F)(F)F)n1
→ -3%, >57
- CCOc1ccc(CCNC(=O)c2cccnc2N2CCCC2)cc1OCC
→ -13%, >57
- O=C(CSc1nnc(-c2cccnc2)n1Cc1ccco1)N1CCc2ccccc21
→ -4%, >57
- O=C(c1ccc(NC(=O)C2(c3ccccc3)CCOCC2)cc1)N1CCOCC1
→ 0%, >57
- CSCCC(NC(N)=O)C(=O)N(C)CC(=O)Nc1ccc(C)cc1 (configuration not stated)
→ 0%, >57
- CCOC(=O)CCc1c(C)nc(SCCN2CCCC2)c(C#N)c1C
→ -12%, >57
- C=CCn1c(CCCNC(=O)CCC)nc2ccccc21
→ 1%, >57
- O=C1c2oc3ccc(Cl)cc3c(=O)c2C(c2ccco2)N1CCN1CCOCC1 (configuration not stated)
→ 10%, >57

The list goes on.
Each structure is followed by: Anthrax LT inh, Prx2 Sm inh
- CC(=O)c1sc(-c2c(C)nc3sccn23)nc1C1CCCC1
→ -19%, >57
- COc1ccc(Cl)cc1NC(=O)N1CCN(S(C)(=O)=O)CC1
→ 14%, >57
- O=C(Nc1ccc2c(c1)OCCO2)c1ccccc1F
→ -12%, >57
- O=C1CSC(=O)N1CCOCCN1C(=O)CSC1=O
→ -1%, >57
- CCc1cccc(NC(=O)Cn2cc3c(n2)CCCC3)c1
→ ?, >57
- Cc1cc(C)c2c(SCc3ccc(Cl)cc3Cl)nc(N)nc2n1
→ -13%[8 µM], >57
- CCSc1ccccc1C(=O)N1CCN(c2ccccc2F)CC1
→ -11%, >57
- COC(=O)c1ccccc1
→ -10%, nt
- COc1ccc(-c2nc(N)nc(C)c2Oc2ccccc2Br)c(O)c1
→ nt, >57
- COc1ccc(-c2noc(CN3CCN(c4ccccc4F)CC3)n2)cc1OC
→ 8%, >57
- Cc1cccnc1NC(=O)Nc1ccc(F)cc1
→ -7%, nt
- COc1ccc(NC(=O)c2oc3ccccc3c2NC(=O)C2CC2)cc1
→ -2%, nt
- COc1ccc(S(=O)(=O)Nc2c(C)n(C)n(-c3ccccc3)c2=O)cc1
→ -2%, >57
- Cc1cccc(N(CC(=O)NCC2CCCO2)C(=O)CCC(=O)Nc2cc(C)on2)c1 (configuration not stated)
→ -11%, >57
- Cc1occc1C(=O)N1CCN(c2ncccn2)CC1
→ -13%, nt
- CC(C)N1C[C@@]23C=C[C@@H](O2)C(C(=O)OCc2ccccc2)[C@H]3C1=O (some centres not stated)
→ 8%, >57
- Cc1cccc(-c2c3c(=O)n(C)c(=O)n(C)c3c3nnc4ccccc4n23)c1
→ -2%, >57
- O=C1CC(C(=O)Nc2ccccc2C(=O)O)C(c2ccccc2)O1 (configuration not stated)
→ 8%, >57
- CC(=O)N[C@H](Cc1ccc(O)cc1)C(=O)O
→ -9%[8 µM], >57
- CCCCCCN(C(=O)CCCCCN1C(=O)NC(c2ccc(-c3ccccc3)cc2)C(C(=O)OCc2ccccc2)=C1C)C(C(=O)NCCCC)c1cccc(C(=O)OC)c1 (configuration not stated)
→ -10%, nt

(next part)
Each structure is followed by: Anthrax LT inh, Prx2 Sm inh
- O=C(c1ccc2c(c1)C(=O)N(Cc1ccco1)C2=O)N1CCOCC1
→ 0%, >57
- COC(=O)c1ccc(OC(=O)c2nn(C)cc2Cl)c(OC)c1
→ ?, >57
- Cn1c(SCc2cnc(-c3ccccc3)s2)nnc1C1COc2ccccc2O1 (configuration not stated)
→ ?, >57
- CC(C)(C)NC(=O)C(c1ccccc1)N(C(=O)c1ccco1)C1CC1 (configuration not stated)
→ -2%, >57
- C/C(N)=C(/C#N)C(=O)CSc1nc2ccc(C)cc2[nH]1
→ ?, >57
- COC(=O)[C@@H]1C[C@@]1(C)[C@@H](NP(=O)(c1ccccc1)c1ccccc1)c1ccccc1
→ -13%, nt
- CCc1ccccc1NC(=O)CSc1nnc([C@@H](NC(=O)OC(C)(C)C)C(C)C)o1
→ -8%, >57
- COc1cccc(NC(=O)c2ccccc2-c2nc(-c3ccc(Cl)cc3)no2)c1
→ -6%, >57
- COc1cccc(C2c3c(oc4cc(C)c(C)cc4c3=O)C(=O)N2CCCN(C)C)c1 (configuration not stated)
→ -12%, >57
- COc1cc(NC(=O)c2ccco2)c(OC)cc1NC(=O)CCC(=O)Nc1cc(C)cc(C)c1
→ -2%, >57
- Cc1onc(-c2ccccc2Cl)c1C(=O)Nc1nn[nH]n1
→ 8%, nt
- CCn1c(SCc2cc(=O)[nH]c3ccccc23)nc2c1c(=O)n(C)c(=O)n2C
→ 2%, >57
- CCOC(=O)C1=C(c2ccccc2)NC(=O)NC1c1ccc(N(C)C)cc1 (configuration not stated)
→ -3%, nt
- COCCCn1c(N)c(C(=O)OCCOC)c2nc3ccccc3nc21
→ 23%, >57
- CCc1cc2c(C)cc(=O)oc2cc1OC(=O)C1CCCN1C(=O)OC(C)(C)C (configuration not stated)
→ ?, >57
- COCc1nc(-c2ccc(-c3ccc(C)cc3)nc2OC)no1
→ -8%, >57
- COc1ccc(S(=O)(=O)Nc2c(C(=O)O)[nH]c3ccccc23)c(OC)c1
→ 11%, >57
- COCCCNC(=O)c1c(-c2ccccc2)noc1C
→ -1%, >57
- Cc1cc(C)cc(C(=O)N(C)[C@H](Cc2ccc(-c3ccccc3)cc2)C(=O)N[C@@H](Cc2c[nH]c3ccccc23)C(=O)O)c1
→ ?, >26
- O=C(O)c1ccc2c(c1)N(Cc1ccccc1F)C(=O)c1ccccc1S2=O (configuration not stated)
→ 8%, >57

(next part)
Each structure is followed by: Anthrax LT inh, Prx2 Sm inh
- COc1ccccc1CNC(=O)C(C)NS(=O)(=O)c1ccccc1 (configuration not stated)
→ 1%, >57
- Oc1c(Cl)cc(CN(Cc2cc(Cl)c(O)c(Cl)c2)C2CCCCC2)cc1Cl
→ -4%[8 µM], >57
- CCCSc1nnc2nc(C)cc(C)n12
→ 4%, >57
- O=C(C1CCN(S(=O)(=O)c2ccc(F)cc2)CC1)N1CC=C(c2ccccc2)CC1
→ -20%, >57
- Cc1cccc(C)c1NC(=O)CC(NCc1ccco1)C(=O)O (configuration not stated)
→ -2%, >57
- CCCCC#CC1C=CC(OC(C)=O)C(COC(C)=O)O1 (configuration not stated)
→ 4%[8 µM], nt
- C#CCOc1ccc2c(C)cc(=O)oc2c1
→ ?, >57
- O=C(NCc1ccco1)C1(S(=O)(=O)c2ccc(Cl)cc2)CC1
→ -3%, >57
- O=C(O)c1cc2ccccc2oc1=O
→ -5%, >57
- COc1cc(C(=O)Nc2oc(-c3ccccc3)c(-c3ccccc3)c2C#N)cc(OC)c1OC
→ -3%, >57
- CCC(C)(C)n1nnnc1C(c1cc2ccc(OC)cc2[nH]c1=O)N1CCc2ccccc2C1 (configuration not stated)
→ ?, >57
- CCOC(=O)CCSc1nc(C)c2ccccc2n1
→ ?, >57
- Cc1c[nH]c2cccc(OCC(O)CNC(C)(C)C)c12 (configuration not stated)
→ ?, >57
- CCn1c(=O)c2cc(S(=O)(=O)NC3CCCCC3)ccc2n(CC)c1=O
→ -2%, >57
- CCOC(=O)c1cc2oc(C(c3nnnn3C3CCCCC3)N3CCOCC3)cc2[nH]1 (configuration not stated)
→ ?, >57
- Cc1sc2nc(-c3cccs3)nc(N3CCCN(C)CC3)c2c1C
→ -6%, >57
- CCn1cc(C(=O)NCCCN2CCC(C)CC2)c2cc(OC)c(OC)cc2c1=O
→ -8%, >57
- O=C(CN(CC1CCCO1)C(=O)Cn1nnc(-c2ccc(F)cc2)n1)NC1CCCCC1 (configuration not stated)
→ 0%, >57
- O=C(Cn1cc2c(n1)CCCC2)NC1CCN(Cc2ccccc2)CC1
→ -23%, >57
- COc1ccc(Br)cc1S(=O)(=O)N1CCN=C1C
→ -22%, nt

Following part.
Each structure is followed by: Anthrax LT inh, Prx2 Sm inh
- CCCS(=O)(=O)N1CCC(C(=O)NCCc2ccc(C)cc2)CC1
→ -6%, >57
- Nc1nc(-c2cccnc2)nc(N2CCCCC2)n1
→ nt, >57
- Cc1cc(NC(=O)c2cccc(F)c2)ncc1NC(=O)c1ccco1
→ -17%, >57
- CCn1c(SCC(=O)Nc2ccc(NC(C)=O)cc2)nnc1C1CC1
→ -11%, >57
- NCCC[C@@H](CC(=O)N[C@@H]1CCCC[C@H]1C(=O)N[C@H](CC(=O)N[C@@H](CCC(=O)O)CC(=O)O)Cc1ccccc1)NC(=O)C[C@H](CO)NC(=O)[C@@H]1CNCC[C@H]1N
→ -10%, >57
- COc1cc(C(=O)Nc2cccc3ncccc23)cc(OC)c1OC
→ -4%, nt
- O=C(Nc1ccccc1O)c1ccccc1O
→ ?, >57
- Cc1ccc(NCc2nnc(SCC(=O)Nc3ccccc3)n2CC2CCCO2)c(C)c1 (configuration not stated)
→ 7%, >57
- O=C1CC(c2ccc3c(c2)OCO3)C2=C(CCCC2=O)N1 (configuration not stated)
→ 19%, >57
- c1ccc(OCCCc2nc(-c3cccnc3)no2)cc1
→ -6%, >57
- Fc1ccc(Nc2ccnc(-c3ccoc3)n2)cc1
→ 4%, nt
- CCC(C)c1ccc(NC(=O)C2CCCN(c3ncccn3)C2)cc1 (configuration not stated)
→ -25%, >57
- Cc1oc(-c2cccc(Cl)c2)nc1CN1CCC(C(=O)NCc2cccnc2)CC1
→ -11%, >57
